Assay outcomes: PubChem, ICCB-Longwood Screening Facility, Harvard Medical School
GIV Gai3 FP: GIV-Galpha-i interaction inhibition; P08753; Galpha-i3/FITC-GIV peptide fluorescence polarization, 90 min; hits give low values; scaled: aluminum fluoride 0%, vehicle 100%; AID 1224905; hit rate 0.42% among 210,000; percent of control (FP), % (concentration not given with the values);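 active = replicate mean at 85% of control or lower, very high polarization wells dropped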;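 also: wells of about 15 µL received 100 nL stock; the first replicate is given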
Target sequence (P08753 whole entry, looked up): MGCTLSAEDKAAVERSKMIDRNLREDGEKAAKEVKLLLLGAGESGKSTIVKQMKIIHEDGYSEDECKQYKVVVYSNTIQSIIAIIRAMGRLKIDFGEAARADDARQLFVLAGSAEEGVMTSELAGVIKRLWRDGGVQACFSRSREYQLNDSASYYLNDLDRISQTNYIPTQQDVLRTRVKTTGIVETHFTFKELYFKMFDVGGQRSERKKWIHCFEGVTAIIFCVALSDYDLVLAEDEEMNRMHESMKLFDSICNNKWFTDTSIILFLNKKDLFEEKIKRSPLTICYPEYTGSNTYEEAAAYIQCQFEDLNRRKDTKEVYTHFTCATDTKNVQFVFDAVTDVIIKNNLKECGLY
Sa growth 42C: blocks Staphylococcus aureus growth; S. aureus RN4220 growth, OD600, 20 h, 42 °C; hits give low values; relative growth, % (concentration not given with the values); hit rate 0.53% among 170,000; AID 720641;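 active = growth at 42 °C up to 50% and 20 or more points under that at 30 °C, or under 10% at both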;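 also: 300 nL library stock went into each well; scaled to the means of positive and negative controls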
HCMV UL50-53 inh: disrupts HCMV UL50-UL53 complex binding | hit rate 0.15% among 190,000 | inhibition, % (concentration not given with the values) | AID 1918969 | HTRF UL50-UL53 interaction, normalized percent inhibition;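 active = both replicates at 50% or more, plus weaker picks with an unusually low signal ratio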;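 also: stock transfer was 100 nL into about 20 µL; 0% = negative control wells and 100% = wells with untagged competitor protein; inactives centre near -12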
Sa growth 42C second temp: recorded beside Sa growth 42C, whose call it bears; relative growth, %; measured here: growth at 30 °C;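 optical density after 20 h as mean of two plates; 100% = untreated growth and lower means inhibition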
* hit, by the source's call; nt = not tested or not shown; & = joins results of further samples.

#	SMILES	GIV Gai3 FP	Sa growth 42C	Sa growth 42C second temp	HCMV UL50-53 inh
1	Cc1cc(C)cc(NC(=O)c2cnc3sccn3c2=O)c1	103	nt	nt	9
2	COCCNC(=O)c1c[nH]c2ccc(S(=O)(=O)Nc3ccc(F)cc3F)cc2c1=O	101	99	87	-1
3	CCC12CN3CC(CC)(CN(C1)C3c1cc(Br)ccc1OC)C2=O (stereo unspecified)	96	104	88	-39
4	CC[n+]1c(/C=C/C=C2/N(C)c3ccccc3C2(C)C)sc2ccccc21	-20*	nt	nt	-10
5	Cc1cccc(-n2ccc(=O)c(C(=O)Nc3c(C)n(C)n(-c4ccccc4)c3=O)n2)c1	101	nt	nt	-13
6	COC(=O)C1[C@H]2C[C@H]3c4[nH]c5ccccc5c4CCN3C[C@@H]2CC[C@@H]1O (stereo partly specified)	nt	86	86	-40
7	COc1ccc2c(c1)-c1c(ssc1=S)C(C)(C)N2C(C)=O	102	123	87	nt
8	COc1cc(OC)cc(-c2cc3nc(C)c(CCC(=O)NCc4ccc(Cl)cc4)c(C)n3n2)c1	103	102	89	6
9	COc1ccc(NC(=O)Cn2c(=O)n(-c3cccc(C)c3)c(=O)c3c2c2cc(C)ccc2n3C)c(OC)c1	101	nt	nt	-14
10	COc1ccc(CN(C)C(=O)c2cc(C)n(C(C)C)c2C)c(OC)c1	nt	106	97	-11
11	O=C1CCCN2N=C(SCC(=O)Nc3ccccc3C(F)(F)F)SC2=N1	104	98	88	-18
12	N#Cc1c(N2CCCC2=O)sc2c1CCCCC2	nt	105	99	-6
13	COc1cc(SC)ccc1C(=O)N1CCCCCC1	106	92	85	-13
14	CN(C(=O)c1cc2c(s1)-c1ccccc1OC2)c1ccccc1	97	80	48	nt
15	CCn1c(SCC(=O)N(C)C)nnc1-c1ccccc1	101	117	90	-8
16	CCc1ccc(N(CC)C(=O)c2cn(C)c(=O)c3cc(OC)c(OC)cc23)cc1	101	91	100	24
17	O=C1COCC(=O)N1Cc1csc2ccccc12	102	106	87	-2
18	CS(=O)(=O)CCSc1ncccc1C(=O)Sc1ccc(Cl)cc1Cl	102	115	86	3
19	Cc1cccc(C)c1Nc1nc2ccccc2o1	96	149	100	-8
20	CC1CC(Nc2ccccc2)c2ccccc2N1 (stereo unspecified)	102	101	90	-1
21	COc1ccc(-c2noc(CSc3nnc(Cc4ccccc4)n3-c3cccc(C)c3)n2)cc1	100	109	90	-14
22	Cc1c2cnn(CC(=O)N3CCC(C)CC3)c(=O)c2c(C)n1Cc1ccccc1	98	nt	nt	10
23	Cn1c(=O)c2c(c3ccccc31)OC(=O)CC2c1cccc(Cl)c1 (stereo unspecified)	106	104	104	nt
24	CCCCCCC1CC(=O)NC(=O)N1 (stereo unspecified)	103	94	93	-17
25	Cc1c(CNCc2ccccc2Cl)c(C(=O)O)c(C)n1-c1ccc(Cl)cc1	103	nt	nt	-17

Further records.
#	SMILES	GIV Gai3 FP	Sa growth 42C	Sa growth 42C second temp	HCMV UL50-53 inh
26	Cc1cc(C)c(S(=O)(=O)NCC23C=CC(O2)C2C(=O)N(c4ccc(Cl)cc4)C(=O)C23)c(C)c1 (stereo unspecified)	nt	84	87	-1
27	O=C(CCC(=O)N1CC=C(c2c[nH]c3ccccc23)CC1)NCc1ccc(Cl)cc1	117	nt	nt	-7
28	CCOC(=O)c1c(NC(=O)c2cc3ccccc3c(=O)o2)sc2c1CCC(C(C)(C)C)C2 (stereo unspecified)	102	96	86	-6
29	CC(C)(C)OC(=O)COc1cc(O)c2c(=O)cc(-c3ccccc3)oc2c1	98	nt	nt	-4
30	CCOCCCNC(=O)Nc1cc2c(cc1N1CCC(C(=O)OCC)CC1)n(C)c(=O)n2C	105	nt	nt	2
31	CCOC(=O)c1cnc2c(Cl)c(Cl)ccc2c1N(C)Cc1ccccc1	103	96	90	nt
32	COC(=O)c1ccc(OC)c(Cn2c(=O)n(-c3cccc(Cl)c3)c(=O)c3c2c2cc(C)ccc2n3C)c1	103	100	88	-9
33	COC(=O)c1cccc(NC(=O)NC(C)(C)C)c1	108	94	83	-30
34	COc1cccc(CNC(=O)c2nnc(Cc3ccc(Cl)cc3)o2)c1	104	89	84	-12
35	COc1cccc(CNC(=O)c2cc3ccccn3n2)c1	100	89	92	-7
36	CN(C(=O)CC(=O)Nc1ccc2nc3n(c(=O)c2c1)CCCCC3)c1ccccc1F	99	89	76	-13
37	O=C(O)c1cc(N2N=C(C(F)(F)F)/C(=C/c3ccc(-c4ccccc4)o3)C2=O)ccc1Cl	nt	88	69	18
38	COc1cccc(CNC(=O)Cn2c(=O)ccc3cc(S(=O)(=O)N4CCC(C)CC4)ccc32)c1	96	102	78	nt
39	c1ccc(-c2cc(-c3nc(-c4ccccc4)no3)[nH]n2)cc1	108	nt	nt	-14
40	Cn1c(=O)cc(SCC(=O)NCc2cccnc2)c2ccccc21	100	104	83	nt
41	CC(=O)N1N=C(c2[nH]nc(-c3ccccc3)c2C)OC1/C(C)=C/c1ccccc1 (stereo unspecified)	97	nt	nt	-3
42	Cc1cc(C)cc(Nc2cc(C(=O)NC3CCCCC3)c3ccccc3n2)c1	102	98	105	4
43	CCOC(=O)C1=C(CN2CCC(C)CC2)NC(=O)NC1c1ccc(OC(C)C)cc1 (stereo unspecified)	105	95	89	-18
44	Cc1nc(-c2ccc(Cl)cc2)c(-c2ccccc2)s1	107	73	27	-37
45	COc1cc(C=C2C(=O)NC(=O)NC2=O)ccc1OCCSc1cccc2ccccc12	108	nt	nt	52
46	CC(=O)NC(=O)CSc1nc2ccccc2o1	101	88	84	-16
47	CCCc1c(C(=O)NC2CCN(C(=O)OCC)CC2)cnn1-c1ccccc1	100	103	94	0
48	COc1ccc(N2CCN(c3oc(/C=C/c4cccc(OC)c4)nc3C#N)CC2)cc1	102	115	90	-25
49	COCCN(C(=S)Nc1cccc(Cl)c1C)C(C)c1ccccn1 (stereo unspecified)	97	114	66	nt
50	O=C(O)CCC(=O)N1CCc2cc(S(=O)(=O)NCCc3ccc(Cl)cc3)ccc21	93	86	81	-20

Later entries.
#	SMILES	GIV Gai3 FP	Sa growth 42C	Sa growth 42C second temp	HCMV UL50-53 inh
51	CC(=O)NS(=O)(=O)c1ccc(N=NN2CCCCC2)cc1	103	104	115	2
52	CSc1ccccc1NC(=O)CN(C)S(=O)(=O)c1ccccc1Cl	nt	113	63	-19
53	CCOC(=O)c1cc(-c2ccccc2)n(CCC(=O)Nc2ccc(Cl)c(C(F)(F)F)c2)c1C	101	84	93	nt
54	Cc1cc(N2CCOCC2)nc(N2CCOCC2)n1	nt	89	95	-25
55	COc1ccc(CCNC(=O)c2ccc(Sc3ccc(C)cc3)c(NC(C)=O)c2)cc1OC	101	75	77	nt
56	COc1ccccc1N1CCN(C(=O)Cn2ncc3c(=O)oc4ccccc4c32)CC1	105	117	85	-10
57	Cc1cc2nnc(-c3cccc4c3OCO4)n2c2ccccc12	nt	94	92	-9
58	COc1ccc(C(=O)Nc2ccc(Oc3ncnc4cc(Cl)ccc34)nc2)cc1	104	95	82	-26
59	O=C(CCN1C(=O)c2ccccc2S1(=O)=O)Nc1ccccc1	111	118	107	17
60	CCn1c(=O)n(CC)c2cc(N3CCCCC3)c(NC(=O)Nc3ccsc3C(=O)OC)cc21	100	nt	nt	-29
61	O=S(=O)(NCC1CCCO1)c1ccc(-c2cc(C(F)(F)F)no2)s1 (stereo unspecified)	104	86	83	-31
62	O=C(Nc1ccccc1N1CCOCC1)C1(c2ccccc2)CC1	nt	102	93	-38
63	CC(C)(C)c1ccc(C(CNC(=O)c2cc(-c3ccc4c(c3)OCCO4)on2)N2CCCC2)cc1 (stereo unspecified)	104	nt	nt	-17
64	CC(C)(C)c1ccc(NC(=O)C2CCCC2)cc1	nt	78	97	-24
65	O=C(Cn1ccc2cc(S(=O)(=O)N3CCCCC3)ccc21)NCCc1ccccc1Cl	104	113	92	nt
66	COc1ccc(Cl)cc1-n1c(/C=C/c2cccc3ccccc23)nc2ccccc2c1=O	101	131	93	nt
67	Cc1nc2sc3ccccc3n2c(=O)c1S(=O)(=O)NCCC1=CCCCC1	105	nt	nt	-18
68	O=c1ccc(C2CCN(S(=O)(=O)c3ccc(F)cc3)CC2)nn1-c1ccccc1	107	83	84	nt
69	O=S(=O)(NCC1COc2ccccc2O1)c1cc(Cl)sc1Cl (stereo unspecified)	110	137	96	-84
70	CCS(=O)(=O)C1=NSC2=NC(=O)/C(=C\c3ccc(OCc4ccc(C)cc4)c(OC)c3)C(=N)N21	107	74	82	nt
71	CCCC(=O)Nc1cc2nn(-c3ccc(OC)cc3)nc2cc1C	104	91	97	-9
72	CC1CCCCN1CCCNC(=O)CN1C(=O)c2cccnc2Oc2ccccc21 (stereo unspecified)	105&98	84	108	-3
73	Cc1ccc(-c2c(C(F)(F)F)nn3c(NCCCN4CCOCC4)cc(C)nc23)cc1	92	nt	nt	-1
74	CC(O)/C=C/c1cccc[n+]1C (stereo unspecified)	98	122	99	18
75	CC(/C=C1\SC(=S)N(CCC(=O)N(CCO)Cc2ccccc2)C1=O)=C\c1ccccc1	106	nt	nt	-4

5 entries from above in a different format:
69: O=S(=O)(NCC1COc2ccccc2O1)c1cc(Cl)sc1Cl (stereo unspecified)
62: O=C(Nc1ccccc1N1CCOCC1)C1(c2ccccc2)CC1
58: COc1ccc(C(=O)Nc2ccc(Oc3ncnc4cc(Cl)ccc34)nc2)cc1
61: O=S(=O)(NCC1CCCO1)c1ccc(-c2cc(C(F)(F)F)no2)s1 (stereo unspecified)
65: O=C(Cn1ccc2cc(S(=O)(=O)N3CCCCC3)ccc21)NCCc1ccccc1Cl

Screen / compound no.	69	62	58	61	65
GIV Gai3 FP	110	nt	104	104	104
Sa growth 42C	137	102	95	86	113
Sa growth 42C second temp	96	93	82	83	92
HCMV UL50-53 inh	-84	-38	-26	-31	nt

Next section.
#	SMILES	GIV Gai3 FP	Sa growth 42C	Sa growth 42C second temp	HCMV UL50-53 inh
76	CC1CC(C)CN(C(=O)CC2Oc3ccccc3NC2=O)C1 (stereo unspecified)	103	106	91	nt
77	Cc1cc(-n2nc(C)cc2C)n2nc(C(F)(F)F)c(-c3ccc(Cl)cc3)c2n1	105	nt	nt	-18
78	CCOc1ccc(NC(=O)c2nn(-c3ccc(OC)cc3)c(=O)n(C)c2=O)cc1	107	nt	nt	-32
79	CCC(=O)C12CC3CC(CC(C3)C1)C2	103	85	88	-18
80	C=CCn1c(SCc2ccc(F)cc2)nc2c(-c3ccccc3)cn(C)c2c1=O	100	nt	nt	-29
81	O=C(O)c1ccccc1Sc1ccccc1S(=O)(=O)NC1CCCCC1	98	119	87	9
82	CN1CCNC(c2ccccc2)C1 (stereo unspecified)	nt	99	88	-6
83	COc1ccc(-c2cn3c(n2)sc2cc(C(=O)NCc4cccs4)ccc23)cc1	110	139	75	nt

Given with each value named: part of the list above
83: COc1ccc(-c2cn3c(n2)sc2cc(C(=O)NCc4cccs4)ccc23)cc1
  GIV Gai3 FP: 110
  Sa growth 42C: 139
  Sa growth 42C second temp: 75
  HCMV UL50-53 inh: nt
81: O=C(O)c1ccccc1Sc1ccccc1S(=O)(=O)NC1CCCCC1
  GIV Gai3 FP: 98
  Sa growth 42C: 119
  Sa growth 42C second temp: 87
  HCMV UL50-53 inh: 9
79: CCC(=O)C12CC3CC(CC(C3)C1)C2
  GIV Gai3 FP: 103
  Sa growth 42C: 85
  Sa growth 42C second temp: 88
  HCMV UL50-53 inh: -18
80: C=CCn1c(SCc2ccc(F)cc2)nc2c(-c3ccccc3)cn(C)c2c1=O
  GIV Gai3 FP: 100
  Sa growth 42C: nt
  Sa growth 42C second temp: nt
  HCMV UL50-53 inh: -29
